# Screening results from PubChem.
# GALR2 agonist = GALR2 (human) receptor agonism. activation, %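 (tested at 5 µM)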. GALR2-expressing cells, agonist activation read-out. O43603. 140,000 compounds, 0.48% hits;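 active = above mean plus 3 SD of all compounds, about 5% in these data, not always enough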;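 also: 0% = vehicle buffer wells and 100% = reference agonist at full effect; tested in CHO reporter cells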
# Target sequence (O43603 whole entry, looked up): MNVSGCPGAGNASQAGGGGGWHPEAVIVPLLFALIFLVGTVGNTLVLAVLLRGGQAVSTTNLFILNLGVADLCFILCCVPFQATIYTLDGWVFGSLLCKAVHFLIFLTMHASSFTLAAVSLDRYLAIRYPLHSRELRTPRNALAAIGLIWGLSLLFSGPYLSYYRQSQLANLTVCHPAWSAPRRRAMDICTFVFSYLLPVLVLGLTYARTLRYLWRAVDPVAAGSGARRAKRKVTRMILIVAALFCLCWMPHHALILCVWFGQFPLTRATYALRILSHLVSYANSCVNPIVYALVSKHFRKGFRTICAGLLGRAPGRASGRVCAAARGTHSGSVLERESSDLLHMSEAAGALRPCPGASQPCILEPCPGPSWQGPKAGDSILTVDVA
# PKD1 kinase inh = inhibitors of human PKD1 kinase; inhibition, %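 (about 10 µM by stock and volumes)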; 200,000 compounds, 0.056% hits; PKD1 kinase fluorescence polarization assay; AID 797;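 active = inhibition of 50% or more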;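 also: controls were vehicle for no effect and a reference inhibitor for full effect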
# RGS16-Gao HTS = RGS16-Galphao interaction regulator (human); O15492+P09471; bead-based flow cytometry RGS16-Galphao binding, fluorescence; actives lie on both sides; binding response (% of control), % at 10 µM; 220,000 compounds, 0.38% hits;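 active = below 25% or above 175%, edge rows of some plates excepted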;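 also: Galphao activated by GDP with aluminum fluoride before binding; 100% = wells without compound and 0% = beads without RGS; some results beyond the cut were filed as inactive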
# Target sequence (O15492 whole entry, looked up): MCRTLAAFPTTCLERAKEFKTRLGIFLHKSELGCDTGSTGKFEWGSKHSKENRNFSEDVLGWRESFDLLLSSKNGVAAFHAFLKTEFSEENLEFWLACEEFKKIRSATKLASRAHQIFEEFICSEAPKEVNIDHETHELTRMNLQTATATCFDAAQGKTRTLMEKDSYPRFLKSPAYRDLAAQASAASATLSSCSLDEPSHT
# Target sequence (P09471 whole entry, looked up): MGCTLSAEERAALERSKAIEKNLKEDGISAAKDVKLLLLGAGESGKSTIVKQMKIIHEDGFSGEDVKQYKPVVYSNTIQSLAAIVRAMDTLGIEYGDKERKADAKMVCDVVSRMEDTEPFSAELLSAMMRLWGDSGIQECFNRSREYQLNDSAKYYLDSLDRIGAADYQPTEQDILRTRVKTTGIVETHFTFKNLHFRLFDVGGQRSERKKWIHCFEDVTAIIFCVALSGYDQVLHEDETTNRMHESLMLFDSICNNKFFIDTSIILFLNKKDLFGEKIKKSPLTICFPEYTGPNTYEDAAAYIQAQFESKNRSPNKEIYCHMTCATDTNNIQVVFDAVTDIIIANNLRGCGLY
# Insulin prom inh = TRM-6 insulin promoter activity inhibition; inhibition, % at 2 µM; AID 1273; 130,000 compounds, 0.9% hits; TRM-6 cells (human fetal islet line), insulin promoter-eGFP reporter, imaging; reporter expression induced with tamoxifen;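 active = inhibition above the mean plus 3 SD, with well images judged a real hit on visual review, cut at about 60% in these data, passing the limit was not always enough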
# HSV replic up = HSV replication enhancement; HSV replication augmentation in cells, fold increase; maximum fold increase; 220,000 compounds, 0.005% hits;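 active = peak rise of 1.5-fold or more in the series; tested in PC3 cells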;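 also: first round at 10 µM; read as green reporter fluorescence; hits show the peak of a series up to 25 µM; 1 = signal of infected wells without compound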
# Insulin prom inh cell count = also measured in Insulin prom inh; calls as there; normalized cell count, %; measured here: cell count, toxicity; reference of the scale not given here;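 cells exposed to compound for 48 h; stained nuclei by imaging scaled within each plate; lower means fewer cells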
# HSV replic up primary fold = second read-out of HSV replic up, no call of its own (marks repeat the call); fold increase; compound at 10 µM; measured here: primary screen fold increase 10 uM; tested in PC3 cells;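 GFP signal in the first replicate; 1 = infected wells without compound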
# Starred values were filed as active, the others as inactive; i = inactive; . = not tested or not shown. Rows were taken by chance (roughly 1.1% active in at least one column).
mol,GALR2 agonist,PKD1 kinase inh,RGS16-Gao HTS,Insulin prom inh,Insulin prom inh cell count,HSV replic up,HSV replic up primary fold
Cc1cccc(NC(=O)NNC(=O)c2cc(-c3ccccc3Cl)nc3ccccc23)c1,-0.6,4,82,30,84,i,1.1
O=C(CC1C(=O)NCCN1C/C=C/c1ccccc1)NCCc1ccncc1 (stereo unspecified),.,-1,103,.,.,i,0.85
Cc1nnc(SCCn2c(Br)nc3c2c(=O)[nH]c(=O)n3C)s1,-1.8,10,145,7,131,.,.
CCNC(=O)CCn1nc(-c2ccc(Cl)cc2)c2ccccc2c1=O,0.9,5,102,0,71,i,0.98
CC(=O)CCn1c(=O)n(CCC(C)=O)c(=O)n(CCC(C)=O)c1=O,36*,-10,95,39,133,i,0.73
COC(=O)c1c(N)n(-c2ccc(NC(C)=O)cc2)c2nc3ccccc3nc12,0.8,0,98,.,.,i,0.83
CC12COC3(C(=O)Nc4ccc([N+](=O)[O-])cc4)CC1CCC32C (stereo unspecified),-0.7,3,119,47,62,i,1.1
C=C1C(C(=O)Nc2ccc(OCC)cc2)C1C(=O)Nc1ccc(OCC)cc1 (stereo unspecified),.,9,99,.,.,i,0.93
CC(C)CC(=O)NC(=S)Nc1ccc(S(=O)(=O)Nc2nccs2)cc1,-0.8,-6,125,-12,97,i,1.1
O=C(COC(=O)C1CC1)Nc1ccc2c(c1)OCO2,.,-3,97,-59,111,i,0.96
CCOC(=O)C1(Cc2cccc(Cl)c2)CCCN(C(=O)c2cccc(C)n2)C1 (stereo unspecified),.,-14,100,.,.,i,0.95
CCC(=O)c1ccc(OCC(O)CN2CCOCC2)cc1 (stereo unspecified),-1.0,-2,92,0,81,i,1
NC(=NCCc1ccccc1)NS(=O)(=O)c1ccccc1,-2.0,4,76,31,123,i,0.95
CCN(CC)S(=O)(=O)c1ccc(Cl)c(NC(=O)COC(=O)c2c(C)noc2C)c1,-1.3,-7,106,.,.,i,1.1
COc1ccc(OCc2nnc(SCC(=O)N3CCOCC3)o2)cc1,.,6,108,.,.,i,1
O=C(c1ccccc1F)N1CCN(c2ccccc2)CC1,-1.9,6,98,-65,164,i,1
CC(C)C(=O)O/N=C1\CCS(=O)(=O)c2sccc21,.,0,98,.,.,i,1.1
CN(CCO)C(=O)CCC(=O)Nc1ccc(S(N)(=O)=O)cc1,-1.6,-10,112,36,126,i,0.93
CCc1ccc2c(c1)c1nnc(NN)nc1n2C,.,.,107,.,.,i,0.91
Cn1c(-c2cccc([N+](=O)[O-])c2)cnc1NCc1ccc(C#N)cc1,.,4,100,50,89,i,0.93
CC(C)N(C(=O)Cn1cc(SCC(N)=O)c2ccccc21)C(C)C,.,10,98,-29,67,i,0.9
CCOC(=O)c1[nH]c2ccccc2c1NC(=O)C(C)(C)C,0.7,-4,115,.,.,i,0.98
COc1ccc(S(=O)(=O)N2CCNC(=O)C2)cc1Br,.,3,103,39,71,i,1.1
C=COCCNC(=S)N1CCOCCOCCN(C(=S)NCCOC=C)CCOCCOCC1,.,-3,98,.,.,i,1.2
Cc1ccc(NC(=O)c2nccnc2C(=O)O)cc1C,-1.0,10,109,.,.,i,0.96
O=C(Cc1nc2ccccc2[nH]1)c1cccc([N+](=O)[O-])c1,.,.,100,.,.,i,0.9
Cc1cc(C)n2c(SCC#N)nnc2n1,-1.4,-2,110,.,.,i,0.96
CCCn1c(CCc2ccccc2)nnc1SCC(=O)N1CCOCC1,-2.2,6,101,78*,108*,i,1.1
Cc1ccc(S(=O)(=O)c2c(C)cc(C)nc2Cl)c(C)c1,-2.8,3,80,37,51,i,0.93
CNc1ncnc(Sc2ccc(Cl)cc2)c1[N+](=O)[O-],.,.,99,.,.,i,1.2
CC(=O)OCC(OC(C)=O)C(OC(C)=O)C(OC(C)=O)C(=O)Nc1ccccc1 (stereo unspecified),.,-2,108,-89,76,i,0.94
CC1(C)CC(=O)/C(=C(\O)c2ccccc2)C(=NCCO)C1,-0.8,-1,97,-23,70,i,0.98
CCC(=O)NCCn1ccc2ccccc21,-4.7,23,114,.,.,i,1.2
CC(/C=C/c1ccccc1)NC(N)=O (stereo unspecified),0.3,-7,101,-45,143,i,0.8
CC(=O)Nc1ccc(/C=N/N2C(=O)NC(C)(c3ccc(OC(F)F)cc3)C2=O)cc1 (stereo unspecified),.,-4,107,.,.,i,1
C(=N\Nc1ccccn1)/c1ccc(N2CCOCC2)cc1,.,-3,112,.,.,i,1.1
CCCC(=O)Nc1ccc(C(=O)N/N=C2\CC(=O)CC(C)(C)C2)cc1,-1.8,-6,102,58,100,i,1
O=C(Cn1c(=O)n(Cc2ccc3c(c2)OCO3)c(=O)c2ccccc21)N1CCCc2ccccc21,-1.7,-8,105,-21,83,i,1
O=C(c1cc([N+](=O)[O-])ccc1Cl)N1CCN(c2ccccc2)CC1,-0.1,1,93,10,96,i,1
CN1/C(=C\C(=O)c2cccs2)Sc2ccccc21,4.4,-5,99,.,.,i,1
Cn1cnc2c1c(=O)n(CC(O)CO)c(=O)n2C (stereo unspecified),-1.8,-9,105,-3,118,i,0.87
COc1cc(/C=N/NC(=O)CCc2c(C)n[nH]c2C)ccc1O,-3.5,-2,100,17,103,i,0.77
O=C1COc2ccc(-c3csc(NCCc4ccccc4)n3)cc2N1,.,-8,92,.,.,i,1
COc1cccc(/C=C2\Oc3cc(OC(=O)N4CCOCC4)ccc3C2=O)c1,.,.,105,.,.,i,1
Cc1c(C(=O)Nc2ccc(F)cc2)oc2ccc(S(=O)(=O)N3CCCC3)cc12,1.5,-5,103,20,91,.,.
CCn1c(=N)n(CC(=O)C(C)(C)C)c2ccccc21,-3.0,-5,99,26,92,i,0.87
CN1CCCC(OC(=O)c2ccc(Cl)cc2)C1 (stereo unspecified),.,.,99,.,.,i,0.94
CC(C)(C)NC(=O)N1CCCN(c2ccc(C(F)(F)F)cn2)CC1,.,.,97,.,.,i,0.92
Cc1ccc2cc(C(c3nnnn3Cc3ccccc3)N3CCc4ccccc43)c(=O)[nH]c2c1C (stereo unspecified),0.3,1,95,39,150,i,0.9
N#CCCn1cc(CNCc2ccccc2)c(-c2cccc([N+](=O)[O-])c2)n1,.,-5,97,.,.,i,0.9
COC(=O)c1oc2c(c1C)C1(CCC2)SCCS1,0.0,4,99,35,72,i,0.96
COc1ccccc1NC(=O)c1ccc(CS(=O)(=O)c2ccc(C)cc2)cc1,.,5,98,.,.,i,1
N#CCCn1cc(/C=N/O)c(-c2ccc(Cl)cc2)n1,-1.6,-9,97,-22,63,i,1.2
Cc1ccc(NCc2nnc(SCC(N)=O)o2)c(C)c1,.,5,98,-14,118,i,1
COc1ccc(Cl)cc1N(CC(=O)N1CCCCC1)S(C)(=O)=O,.,1,106,.,.,i,1.1
Cc1ccc(-c2cc(-c3nnc(SCC(=O)N(C)CCC#N)n3N)c3ccccc3n2)cc1,-2.1,0,103,.,.,i,0.74
CCN(CC)c1ccc(/C=C(/C#N)c2nc3ccccc3[nH]2)c(OC(C)C)c1,-1.6,-3,72,-59,89,.,.
O=C(c1nc2ccccc2s1)N1CCN(c2ccccn2)CC1,0.3,-6,102,-18,121,i,1.1
O=C(COC(=O)C1(c2cccc(F)c2)CCCC1)NCc1ccc2c(c1)OCO2,-0.4,3,106,14,106,i,1.1
COc1ccc(N2CCN(C(=O)c3cc(-c4cccs4)nc4ccccc34)CC2)cc1,.,2,98,.,.,i,0.87

# The results go on.
mol,GALR2 agonist,PKD1 kinase inh,RGS16-Gao HTS,Insulin prom inh,Insulin prom inh cell count,HSV replic up,HSV replic up primary fold
O=C(Oc1ccc(OC(=O)N2CCCCC2)cc1)c1ccccc1,-1.4,-7,105,-11,116,i,1.2
CC(Cc1cccs1)NC(=O)c1cccc(Cl)c1 (stereo unspecified),-1.8,-2,110,.,.,i,0.93
COCCNC(=O)C(c1ccc(C)o1)N(Cc1ccc(F)cc1)C(=O)Cn1nnc2ccccc21 (stereo unspecified),-0.5,-3,103,-78,63,i,1.1
C[n+]1ccc(C(=O)N/N=C/c2ccco2)cc1,-0.3,1,101,.,.,i,0.87
CC(C)CC(=O)NNC(=S)Nc1ccc(S(N)(=O)=O)cc1,.,-4,94,35,115,i,0.93
COc1ccc([C@H]2[C@H](C(=O)C(C)(C)C)N3N=Cc4ccccc4C3[C@]23N=C(c2ccccc2)OC3=O)cc1OC (stereo partly specified),-0.4,-1,103,24,69,.,.
CCc1cc2c(SCC(=O)N(C)C3CCS(=O)(=O)C3)ncnc2s1 (stereo unspecified),.,.,102,.,.,i,1.1
O=C(NC(=S)Nc1ncccn1)c1ccccc1Cl,0.5,35,103,14,156,i,0.98
CCN(CC)c1ccc(NC(=O)COc2ccccc2C#N)cc1S(=O)(=O)Nc1ccccc1OC,-0.5,-3,63,29,106,i,0.86
CC(=O)Nc1ccc(NC(=O)CNS(=O)(=O)c2ccc(C)cc2)cc1,-0.3,4,108,31,76,i,0.92
COc1ccccc1/C=C/CN1CCCC(CCC(=O)NCc2ccc(F)c(F)c2)C1 (stereo unspecified),.,2,100,.,.,i,0.93
CCOC(=O)C1(Cc2cccc(Cl)c2)CCCN(C(=O)C2CC2)C1 (stereo unspecified),.,1,100,.,.,i,0.94
COc1ccc(OCCCC(=O)Nc2cccc(SC)c2)cc1,-2.2,7,107,.,.,i,1.1
COCc1cc(S(=O)c2ccc(Cl)cc2)nc(C)n1 (stereo unspecified),.,-2,98,.,.,i,0.91
CCCC(=O)Nc1ccccc1N1CCN(C(=O)C(C)C)CC1,-0.1,-5,98,.,.,i,0.95
C=CCNC(=O)COc1ccc(S(=O)(=O)N2CCCC2)cc1,.,-13,110,.,.,i,0.92
CCOC(=O)N1CCN(Cc2ccccc2F)CC1,-1.4,7,102,70,76,i,1
Cc1ccccc1-n1nc(C)c2c(C(=O)NN)cc(-c3ccncc3)nc21,.,-5,101,21,142,i,0.99
O=C1c2ccc(Oc3cccc([N+](=O)[O-])c3)cc2C(=O)N1c1ccccn1,.,3,104,.,.,i,0.94
Nn1c(Cc2cccc3ccccc23)nnc1SCc1c(Cl)cccc1Cl,-1.0,0,99,25,120,i,0.89
CCOC(=O)C1(CC2CCCCO2)CCN(C(=O)Nc2ccc(C(=O)OC)cc2)CC1 (stereo unspecified),.,4,99,.,.,i,1
Cc1cc(C)c(S(=O)(=O)N2CCC(C(N)=O)CC2)cc1C,-1.9,11,101,25,108,i,0.93
COc1cccc(-c2csc(N3CCN(C(=O)Nc4ccc(Cl)cc4)CC3)n2)c1,.,-7,97,35,100,i,0.95
CCOc1ccc2nc(NC(=O)CSc3nnnn3C3CCCCC3)sc2c1,2.2,-2,103,-11,119,i,0.8
CCn1c(COc2ccc3c(c2)OCO3)nnc1SCC(=O)O,-1.9,-3,131,.,.,i,0.93
CCOC(=O)c1cc(C#N)c(C)nc1N(CC)CC,.,.,137,.,.,i,0.94
COc1ccc(C(C(=O)NC(C)(C)C)N(C(=O)Cn2nnc3ccccc32)c2cccc(C(C)=O)c2)cc1O (stereo unspecified),.,.,89,.,.,i,0.94
COc1cc(C(=O)OCCN2CCCCC2)ccc1O,-0.1,3,105,-7,159,i,1
CCS(=O)(=O)Nc1cccc(C2=NN(C(C)=O)C(c3cccs3)C2)c1 (stereo unspecified),.,2,104,.,.,i,0.99
O=C(/C=C1\NC2(CCCC2)Cc2ccccc21)C(=O)N/N=C/c1ccc(O)c(O)c1,1.1,7,96,25,55,i,0.88

# One compound at a time (already shown). Order of screens: GALR2 agonist | PKD1 kinase inh | RGS16-Gao HTS | Insulin prom inh | Insulin prom inh cell count | HSV replic up | HSV replic up primary fold
# Listed for `Cc1ccccc1-n1nc(C)c2c(C(=O)NN)cc(-c3ccncc3)nc21` : . | -5 | 101 | 21 | 142 | i | 0.99
# Listed for `CC(C)CC(=O)NNC(=S)Nc1ccc(S(N)(=O)=O)cc1` : . | -4 | 94 | 35 | 115 | i | 0.93
# Listed for `CCOc1ccc2nc(NC(=O)CSc3nnnn3C3CCCCC3)sc2c1` : 2.2 | -2 | 103 | -11 | 119 | i | 0.8
# Listed for `O=C1c2ccc(Oc3cccc([N+](=O)[O-])c3)cc2C(=O)N1c1ccccn1` : . | 3 | 104 | . | . | i | 0.94
# Listed for `COc1ccc([C@H]2[C@H](C(=O)C(C)(C)C)N3N=Cc4ccccc4C3[C@]23N=C(c2ccccc2)OC3=O)cc1OC` (stereo partly specified) : -0.4 | -1 | 103 | 24 | 69 | . | .
